Screening results as filed in PubChem BioAssay.
HCMV UL50-53 inh: cytomegalovirus nuclear egress complex inhibition. inhibition, % (no concentration beside the values). AID 1918969. HTRF UL50-UL53 interaction, normalized percent inhibition. 190,000 tested, 0.15% active;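 active = both replicates at 50% or more, plus weaker picks with an unusually low signal ratio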;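 also: stock transfer was 100 nL into about 20 µL; 0% = negative control wells and 100% = wells with untagged competitor protein; inactives centre near -12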
Sa growth inh: inhibitors of Staphylococcus aureus growth at 42 °C. AID 720641. 170,000 tested, 0.53% active. relative growth, % (test concentration not listed). S. aureus RN4220 growth, OD600, 20 h; active compounds read low;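 active = growth at 42 °C up to 50% and 20 or more points under that at 30 °C, or under 10% at both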;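 also: 300 nL library stock went into each well; scaled to the means of positive and negative controls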
GIV-Gai inh: inhibitors of GIV GBA-motif binding to rat Galpha-i3; P08753; Galpha-i3/FITC-GIV peptide fluorescence polarization, 90 min; active compounds read low; scaled: aluminum fluoride 0%, vehicle 100%; percent of control (FP), % (concentration not given with the values); 210,000 tested, 0.42% active; AID 1224905;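 active = replicate mean at 85% of control or lower, very high polarization wells dropped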;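 also: wells of about 15 µL received 100 nL stock; the first replicate is given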
Target sequence (P08753 whole entry, looked up): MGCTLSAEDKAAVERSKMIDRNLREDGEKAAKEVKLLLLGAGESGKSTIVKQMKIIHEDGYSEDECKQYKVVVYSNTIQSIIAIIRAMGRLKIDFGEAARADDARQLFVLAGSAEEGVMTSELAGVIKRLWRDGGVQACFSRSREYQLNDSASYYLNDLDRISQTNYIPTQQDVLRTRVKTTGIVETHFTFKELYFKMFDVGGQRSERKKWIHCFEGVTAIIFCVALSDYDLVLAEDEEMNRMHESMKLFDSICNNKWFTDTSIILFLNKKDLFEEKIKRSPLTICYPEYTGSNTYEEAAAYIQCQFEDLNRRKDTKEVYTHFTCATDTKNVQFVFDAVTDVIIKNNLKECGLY
Sa growth inh second temp: recorded beside Sa growth inh, whose call it bears; relative growth, %; measured here: growth at 30 °C;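 optical density after 20 h as mean of two plates; 100% = untreated growth and lower means inhibition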
Starred values were filed as active, the others as inactive; nt = not tested or not shown.

| SMILES | HCMV UL50-53 inh | Sa growth inh | Sa growth inh second temp | GIV-Gai inh |
| --- | --- | --- | --- | --- |
| Cc1cc(/C=C(/C#N)C(=O)NC(C)C)c(C)n1-c1ccc2ccccc2c1 | -16 | 120 | 102 | 101 |
| CCOC(=O)c1c(NC(=O)c2ccc(C)c([N+](=O)[O-])c2)sc(C(=O)Nc2ccccc2F)c1C | -14 | nt | nt | 104 |
| CN=C1S/C(=C\c2ccc(Cl)cc2)C(=O)N1C | -67 | 101 | 87 | nt |
| COc1ccc(Cl)cc1NC(=O)NCCCn1c(-c2ccc(F)cc2)nc2cccnc21 | -14 | nt | nt | 107 |
| O=C(NCc1ccccc1)c1cnn2c(C(F)F)cc(-c3ccccc3)nc12 | -11 | nt | nt | 104 |
| CCCCCn1c(SCC(=O)N2CCC(C(=O)O)CC2)nc2ccccc21 | -32 | 102 | 91 | nt |
| Cc1c(-c2ccccc2)n(-c2ccc(Cl)cc2)c2nc3c(c(=O)n(C)c(=O)n3C)n12 | nt | 106 | 88 | 104 |
| COc1ccc(OC)c(NC(=O)c2nn(C)c(C(F)(F)F)c2Cl)c1 | 3 | nt | nt | 98 |
| Cc1cc(C)cc(C(=O)NCC(c2ccc(N(C)C)cc2)N2CCCC2)c1 (centres undefined) | nt | 89 | 82 | 100 |
| COc1cc(C=Nc2ccccc2C(N)=O)ccc1O | -12 | 66 | 51 | 101 |
| O=C(/C=C/c1cccs1)NC1CCN(Cc2ccccc2)CC1 | -24 | 79 | 91 | nt |
| Cc1ccc(-c2cn3cccnc3n2)cc1NC(=O)Nc1ccccc1 | nt | 124 | 98 | 101 |
| Cn1cc(NC(=O)N2CCCCC2)c2ccccc2c1=O | -13 | 96 | 97 | 104 |
| CN(C)Cc1c(O)ccc2c1O/C(=C\c1ccccc1)C2=O | -41 | 92 | 84 | 126 |
| CC(C)c1ccccc1NC(=O)CSc1nnc(-c2cccs2)n1CC1CCCO1 (centres undefined) | 3 | 105 | 97 | nt |
| C=CCn1c(SCC(=O)Nc2ccc(S(N)(=O)=O)cc2)nnc1-c1ccco1 | -18 | 80 | 77 | nt |
| Oc1c(-c2ncc(-c3ccc(Cl)cc3)o2)sc2ncccc12 | -20 | 117 | 82 | nt |
| N#CCC(=O)N(Cc1ccccc1)C(=O)Nc1cccc(F)c1 | -21 | 122 | 94 | 102 |
| O=C(Cc1ccc2c(c1)OCCO2)Nc1ccccc1N1CCOCC1 | -38 | 81 | 86 | nt |
| Cc1ccc(-n2ncc(-c3cc(C(=O)NC4CCCC4)c4cc(C)ccc4n3)c2C)cc1 | 8 | nt | nt | 108 |
| O=S(=O)(Nc1ccc(-c2ccc(N3CCOCC3)nn2)cc1)c1ccccc1 | -65 | nt | nt | 103 |
| COc1ccc(N2CCN(C(=O)CSCc3ccc(C)cc3)CC2)cc1 | nt | 121 | 99 | 108 |
| COc1ccc(CN2C(=O)C(F)(F)C2c2ccco2)cc1 (centres undefined) | -31 | 92 | 76 | nt |
| O=C(CN(c1ccc(I)cc1)S(=O)(=O)c1ccccc1)Nc1cccnc1 | -16 | 120 | 56 | 102 |
| CCOc1ccc(-c2c(C)nn3c(C)c(C(=O)Nc4ccccc4Br)cnc23)cc1OCC | -56 | nt | nt | 104 |
| NCCCNC(=O)c1cc2ccccc2[nH]1 | 0 | 98 | 105 | 106 |
| COc1ccc(-c2cc(C(F)(F)F)nc(SCC(=O)NC(C)c3ccccc3)n2)cc1 (centres undefined) | -18 | 91 | 89 | 103 |
| O=C(c1[nH]nc2c1CCc1ccccc1-2)N1CCCC1 | -24 | 95 | 86 | 104 |
| c1ccc(C2CCC(N3CCNCC3)CC2)cc1 (centres undefined) | 8 | 109 | 80 | 99 |
| O=C1CCCC(O)=C1C=Nc1ccc2c(c1)oc1ccccc12 | -28 | 110 | 103 | 99 |
| COc1cnc(-c2ccccc2)nc1Oc1ccc(Cl)cc1C | -2 | nt | nt | 102 |
| N#CCCN(N)C1=NS(=O)(=O)c2ccccc21 | nt | 88 | 104 | 102 |
| COc1cc(C2CC(=O)Nc3nc(N)[nH]c(=O)c32)ccc1OCc1cccc(C)c1 (centres undefined) | -18 | nt | nt | 98 |
| CCCCCCc1c(C)c2c(cc(C)c3c(C)coc32)oc1=O | 1 | 101 | 98 | 104 |
| O=C(COC(=O)C12CC3CC(CC(O)(C3)C1)C2)c1ccc(Cl)cc1 | -27 | 100 | 92 | nt |
| Cc1cccc(C(=O)Nc2ccc(N3CC=C(c4ccccc4C)CC3)c(C(=O)O)c2)c1 | nt | 121 | 90 | 98 |
| CCN(Cc1ccccc1)C(=O)CSc1nc2ncccc2[nH]1 | nt | 101 | 85 | 99 |
| COc1ccc(C2C(C(=O)N(C)c3ccc(C(C)C)cc3)c3ccccc3C(=O)N2C)cc1 (centres undefined) | nt | 68 | 75 | 102 |
| CCc1nc(C)cn1S(=O)(=O)c1ccc(F)c(C)c1 | 10 | nt | nt | 104 |
| CCOC(=O)N1CCC(NCCNC(=O)c2ccccc2Cl)CC1 | -16 | 107 | 95 | 106 |
| CC(=O)NCc1ccc(-c2csc(CC(=O)Nc3ccc(C)cc3C)n2)o1 | -11 | 97 | 89 | nt |
| Cc1ccccc1CSc1nnc2n(CC(C)C)c(=O)c3ccccc3n12 | -39 | nt | nt | 104 |
| CCOC(=O)Nc1cccc(C(=O)O)c1 | -26 | 96 | 80 | 99 |
| CCOC(=O)c1c(SC)n[nH]c1N | -20 | 95 | 90 | 103 |
| COCCn1c(C)cc(O)c(C(c2ccccc2)N2CCN(CCO)CC2)c1=O (centres undefined) | nt | 86 | 94 | 99 |
| CCc1ccc(OCc2nc(CCN(C)C(=O)Nc3ccc(C(=O)OC)cc3)no2)cc1 | -14 | nt | nt | 101 |
| COc1ccc(N2C(=O)/C(=C\c3cc(Br)c(OC)c(OC)c3)C(=O)NC2=S)cc1 | 2 | nt | nt | 108 |
| CCOC(=O)c1ccc(NC(=O)C2C3CCCCC32)cc1 (centres undefined) | -6 | 84 | 79 | nt |
| COc1cc(-c2nc3ccccc3c(=O)n2NC(=O)c2cccc(Cl)c2)cc(OC)c1OC | -14 | nt | nt | 106 |
| COC(=O)CSC(=S)N1CCCC1 | -19 | 79 | 89 | nt |
| NS(=O)(=O)c1ccc(CCNC(=O)CN2CCCCC2)cc1 | 3 | 97 | 93 | nt |
| CCCC(=O)Oc1ccc(C(=O)OC)cc1 | -10 | 100 | 103 | 97 |
| CC(C)NC(=O)c1ccc(C2Nc3ccccc3S(=O)(=O)N2Cc2cccc(Cl)c2)cc1 (centres undefined) | -4 | nt | nt | 101 |
| Cc1ccc(S(=O)(=O)N2CCc3cc(C(=O)Nc4c(F)cccc4F)ccc32)cc1 | -29 | 97 | 87 | 104 |
| CN(C)C(=O)c1cn(-c2ccccc2)nc1-c1cccnc1 | -2 | 100 | 96 | nt |
| C=CCn1c(SCc2nnc(-c3ccccc3)o2)nnc1C(O)c1ccccc1 (centres undefined) | -5 | 86 | 93 | 100 |

Structural class: the compounds so far containing a thiophene ring, fused or not.
| SMILES | HCMV UL50-53 inh | Sa growth inh | Sa growth inh second temp | GIV-Gai inh |
| --- | --- | --- | --- | --- |
| CCOC(=O)c1c(NC(=O)c2ccc(C)c([N+](=O)[O-])c2)sc(C(=O)Nc2ccccc2F)c1C | -14 | nt | nt | 104 |
| O=C(/C=C/c1cccs1)NC1CCN(Cc2ccccc2)CC1 | -24 | 79 | 91 | nt |
| CC(C)c1ccccc1NC(=O)CSc1nnc(-c2cccs2)n1CC1CCCO1 (centres undefined) | 3 | 105 | 97 | nt |
| Oc1c(-c2ncc(-c3ccc(Cl)cc3)o2)sc2ncccc12 | -20 | 117 | 82 | nt |

Following part:
| SMILES | HCMV UL50-53 inh | Sa growth inh | Sa growth inh second temp | GIV-Gai inh |
| --- | --- | --- | --- | --- |
| CCOc1ccccc1NC(=O)CSc1nc2c(oc3ccccc32)c(=O)n1CCOC | nt | 95 | 86 | 105 |
| O=C(/C=C1/Sc2ccccc2N(Cc2ccc(F)cc2)C1=O)NCc1ccccc1 | nt | 98 | 93 | 104 |
| CSc1nnc(SCC(N)=S)s1 | -42 | 92 | 80 | 106 |
| Cc1cc(C)c(C#N)c(Oc2ccccc2Br)n1 | -11 | 98 | 81 | 118 |
| Cc1[nH]c2ccccc2c1C(=O)Cn1c(=O)oc2ccccc21 | -16 | 134 | 98 | nt |
| COC(=O)c1ccc(NC(=O)c2cc(S(=O)(=O)N3CCC(C)CC3)cn2C)cc1 | nt | 109 | 106 | 101 |
| Cc1cccc2cc(C3CC(c4ccccc4)=NN3C(=O)CCC(=O)O)c(=O)[nH]c12 (centres undefined) | -1 | nt | nt | 112 |
| COc1ccc(NC(=O)N2CCC(CN3CCCCC3)CC2)cc1 | -2 | 104 | 97 | 106 |
| Cc1cc(NC(=O)CN2CC(C)CC(C)C2)nc2c1c(=O)oc1ccccc12 (centres undefined) | 20 | 117 | 99 | 107 |
| CNC(=O)CC1Sc2ccccc2NC1=O (centres undefined) | -11 | 93 | 86 | 100 |
| N#CC(C(=O)NCc1ccccc1)c1nc2ccccc2nc1Cl (centres undefined) | -15 | 67 | 88 | nt |
| CCn1ccc2c(OCC(=O)NCc3ccccc3)cccc2c1=O | nt | 96 | 86 | 96 |
| CCN(Cc1ccccc1)C(=O)Cn1c(=O)n(CC(=O)NCc2ccco2)c(=O)c2sccc21 | nt | 103 | 86 | 110 |
| CCOC(=O)c1cc(S(=O)(=O)N2CCN(c3cccc(OC)c3)CC2)[nH]n1 | nt | 92 | 99 | 103 |
| O=C(c1ccc(F)cc1)c1c[nH]c2ccccc2c1=O | nt | 77 | 79 | 106 |
| COc1ccc2nc(-c3ccccc3)nc(NCCN3CCCC3)c2c1 | -14 | nt | nt | 105 |
| O=C(Nc1ccc(Cl)cn1)c1ccc(COCC(F)(F)C(F)F)o1 | 3 | 93 | 96 | 113 |
| CCNC(=O)c1ccc2c(c1)S(=O)(=O)c1ccccc1C2=O | -106 | 97 | 86 | nt |
| Cc1nn(-c2ccccc2)cc1-c1noc(C(=O)NCc2ccccn2)n1 | -27 | nt | nt | 101 |
| NC(=O)COC(=O)c1ccc(Cl)cc1N | -22 | 127 | 83 | nt |
| CC1(NC(=O)CSC(C)(C)C)CCS(=O)(=O)C1 (centres undefined) | -11 | 80 | 93 | nt |
| O=c1sc2ccccc2n1COc1ccccc1 | 5 | 117 | 105 | nt |
| Cc1c(S(=O)(=O)c2ccc(Cl)cc2)csc1C(=O)NC1CCN(Cc2ccccc2)CC1 | -18 | 97 | 69 | 103 |
| CCCC(=O)NCc1ccc(OC)cc1 | -3 | 112 | 74 | 98 |
| CC(=O)N1N=C(C)CC1c1ccc(OCc2ccccc2)cc1 (centres undefined) | nt | 109 | 86 | 99 |
| CCN(C(=O)c1ccc(S(=O)(=O)N(C)C)cc1)c1nc2c(C)cccc2s1 | 7 | 108 | 96 | nt |
| CCN(c1cccc(C)c1)S(=O)(=O)c1c[nH]c(C(=O)OC)c1 | nt | 134 | 81 | 111 |
| Cc1ccc(-c2nc3ccc(Cl)cc3n2OCC(N)=O)cc1 | -12 | nt | nt | 105 |
| N#CCSc1nnc2c(n1)[nH]c1ccccc12 | -3 | 96 | 65 | 94 |
| CCOC(=O)c1oc(C(=O)OCC)c(O)c1O | -31 | 90 | 90 | 107 |
| CC1CCCCC1NC(=O)/C=C/c1ccc2c(c1)OCO2 (centres undefined) | -32 | 107 | 81 | nt |
| CCCNC(=O)CCc1nc(-c2ccccc2C)no1 | -4 | 86 | 95 | 110 |
| O=C(CCc1nc(-c2ccccc2)no1)NC1CCCCC1 | nt | 99 | 83 | 104 |
| CN(Cc1ccccc1)C1=CC2=CC(=C(C#N)C#N)CCC2CC1 (centres undefined) | -56 | 110 | 100 | nt |
| O=c1[nH]c(=O)n(-c2ccc(Cl)cc2)c2c1CN(CCCc1ccccc1)CN2 | -12 | 96 | 91 | 108 |
| O=C(OCCN1C(=O)c2ccccc2C1=O)C1CCN(S(=O)(=O)c2cccs2)CC1 | -36 | 93 | 81 | nt |
| Cc1cccc(NS(=O)(=O)c2ccc3c(c2)CC(C)N3C(=O)C2CC2)c1 (centres undefined) | -32 | 91 | 85 | 102 |
| O=C(NC1CCCC1)N1CCCC1c1cccc(F)c1 (centres undefined) | -26 | nt | nt | 97 |
| Cc1cc(C)c(-n2nnnc2SCC(=O)NCCc2ccccc2)c(C)c1 | -14 | 104 | 83 | 103 |
| CC1CCC(NC(=O)c2ccc3c(c2)N(Cc2ccccc2)C(=O)c2ccccc2S3(=O)=O)CC1 (centres undefined) | -13 | nt | nt | 119 |
| CC1(C)C(=O)N(CC(=O)Nc2ccc(OC(F)(F)F)cc2)c2ccccc21 | nt | 127 | 94 | 108 |
| CC1CCN(CC(=O)Nc2ccc(Cl)cc2Cl)CC1 | 0 | 107 | 88 | 111 |
| Nc1cc(N)c2c(c1)Oc1ccccc1CC2 | -4 | 103 | 98 | 121 |
| CCOC(=O)C1N=C2C(=[N+]([O-])C1N)COC(C)(C)/C2=N\O (centres undefined) | -81 | 110 | 91 | 98 |
| Cc1ccc(CN2C(=O)C3CCCCC3C2=O)cc1S(=O)(=O)NCc1ccc2c(c1)OCO2 (centres undefined) | 20 | nt | nt | 102 |
| COc1ccc(N2C(=O)CCS2(=O)=O)cc1S(=O)(=O)Nc1ncccn1 | -5 | nt | nt | 108 |
| CCOc1ccc(CNC(=O)c2ccc3c(c2)sc2nc(-c4ccc(OC)cc4)cn23)cc1 | nt | 99 | 85 | 116 |
| CCOC(=O)Cc1c(C)nc2c(-c3ccc(OC)c(OC)c3)cnn2c1C | -30 | nt | nt | 106 |

Outcome played no part in choosing rows; any-hit rate near 0.82%.
